# miR-21 reporter – qHTS Assay for Modulators of miRNAs and/orActivators of miR-21 | HeLa miR-21 FLuc reporter, luciferase, 48 h | Potency, µM (doses to about 38.3 µM), for the others: at the highest dose reporter change, positive = more light | 340,000 tested, under 10 active | AID 2288, 2010; active = well fitted rising curve with a large enough effect; inconclusive = small, poorly fitted or top-dose-only effect; inactive = no such curve, though single readings can be large or run the other way;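 note: % of control where 0% means no effect; miR-21 action dims this reporter so a rising signal means less miR-21 action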
#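 HeLa cells endogenously expressing miR-21, stably carrying CMV-driven firefly luciferase with a downstream miR-21 binding site, 2000 cells/well. Titrations up to approximately 40 uM, 48 hours; luciferase luminescence read.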
# GLA inh pH 4.5 – qHTS Assay for Inhibitors of Human alpha-Galactosidase at pH 4.5; Alpha-galactosidase A (Homo sapiens), P06280; purified enzyme, 4-MU-alpha-Gal fluorescence, pH 4.5; activity change, negative = inhibition, % at 105 µM; 230,000 tested, under 10 active; inconclusive = small, poorly fitted or top-dose-only inhibition, or a rising curve; inactive = flat fitted curve, though single readings scatter; no compound was filed as active;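 note: 0% = full activity with enzyme and -100% = basal without enzyme; dose as in the result columns while the protocol names 77 µM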
# Rango-impB inh – qHTS Assay for Inhibitors of Rango (Ran-regulated importin-beta cargo) - Importin beta complex formation; Importin subunit beta-1 (Homo sapiens), Q14974; Rango CFP/YFP FRET sensor + importin beta, 45 min; Potency, µM (top dose mostly 92.2 µM), without a hit: at the top dose inhibition of complex formation; hit rate 0.031% among 340,000; AID 540263, 2011; active = rising FRET ratio curve, often small or poorly fitted; inconclusive = mostly compound fluorescence or quenching in the first reads; inactive = flat curves in all reads;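 note: potency is the fitted concentration of half-maximal effect; 0% = DMSO wells and 100% = buffer wells lacking importin beta; nearly all actives have a fitted effect of over 15% in size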
# Target sequence (Q14974 whole entry, looked up): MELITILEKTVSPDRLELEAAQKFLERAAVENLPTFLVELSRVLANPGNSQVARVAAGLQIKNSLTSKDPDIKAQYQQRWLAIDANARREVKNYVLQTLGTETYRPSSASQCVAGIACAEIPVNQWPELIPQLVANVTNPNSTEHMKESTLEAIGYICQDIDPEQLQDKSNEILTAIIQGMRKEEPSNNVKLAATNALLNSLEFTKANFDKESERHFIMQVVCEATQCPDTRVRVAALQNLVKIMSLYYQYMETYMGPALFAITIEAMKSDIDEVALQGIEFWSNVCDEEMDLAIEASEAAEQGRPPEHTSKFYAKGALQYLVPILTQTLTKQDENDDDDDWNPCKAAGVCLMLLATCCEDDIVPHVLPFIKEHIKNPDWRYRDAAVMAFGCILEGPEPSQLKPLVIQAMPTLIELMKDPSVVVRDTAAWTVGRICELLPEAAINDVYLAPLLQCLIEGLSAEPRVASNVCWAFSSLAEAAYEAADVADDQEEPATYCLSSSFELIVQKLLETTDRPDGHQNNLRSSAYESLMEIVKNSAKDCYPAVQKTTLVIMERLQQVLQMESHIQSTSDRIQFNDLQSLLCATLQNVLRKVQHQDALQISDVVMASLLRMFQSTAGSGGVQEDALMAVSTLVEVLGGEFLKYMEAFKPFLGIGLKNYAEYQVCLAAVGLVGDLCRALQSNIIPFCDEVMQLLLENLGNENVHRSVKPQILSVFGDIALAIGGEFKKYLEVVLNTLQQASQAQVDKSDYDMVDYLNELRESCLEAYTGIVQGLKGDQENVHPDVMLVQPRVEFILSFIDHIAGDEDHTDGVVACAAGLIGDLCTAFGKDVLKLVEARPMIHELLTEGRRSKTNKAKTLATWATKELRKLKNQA
#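 Inhibition scored from the CFP 486 nm/YFP 530 nm FRET ratio 45 min after adding 0.125 microM importin beta to 50 nM Rango biosensor preincubated 5 min with compound (room temperature, PBS with DTT, Tween-20, BSA). No-importin wells as positive control.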
# Rango dissoc inh – qHTS Assay for Inhibitors of RanGTP induced Rango (Ran-regulated importin-beta cargo) - Importin beta complex dissociation. Snurportin-1 (Homo sapiens) + GTP-binding nuclear protein Ran (Homo sapiens) + Importin …. Biochemical FRET Rango-importin beta, RanGTP-induced dissociation. Potency, µM (series often up to 46.1 µM), inactives show at the top dose activity change, negative = inhibition. hit rate 0.071% among 340,000; active means falling FRET ratio curve, often poorly fitted, with flat reads before Ran was added; inconclusive means other falling curves, or compound fluorescence or quenching; inactive means flat or rising ratio curve;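 note: potency is the fitted concentration of half-maximal effect; % of control where 0% means no effect; nearly all actives have a fitted effect of over 45% in size; -100% = wells without RanGTP and RCC1; the record marks most hits as doubtful in a second field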
#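 Quantitative HTS using a FRET biosensor: 0.1 uM Rango, 0.25 uM importin beta, 0.6 uM Ran, 2 mM GTP, 0.2 uM RCC1 final, PBS with DTT, Tween-20 and BSA. Post-read taken 45 min after Ran addition.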
# The depositor's hits bear a star; u = inconclusive; x = not tested or not shown; & = joins results of further samples. Some of the compounds tested (hit frequency here may not be typical).
Rango-impB inh	miR-21 reporter	compound	Rango dissoc inh	GLA inh pH 4.5
u	11.2%	O=C1CCCC2=C1C(c1cccs1)Nc1ccc3ncccc3c12 (stereo not given)	-6.9%	1.0
-1.3%	x	CCn1c(SC(C)C(=O)N2CCOCC2)nc2sc(C)c(C)c2c1=O (stereo not given)	-1.8%	x
0.6%	-8.1%	Cc1cccc(-n2nc3c(c2NC(=O)c2ccc4c(c2)OCO4)CS(=O)(=O)C3)c1C	-20.2%	x
0.0%	-62.6%	CCn1cnc2cc(NCc3ccccc3Cl)ccc21	2.3%	x
-1.5%	-25.2%	CC(=O)Nc1cccc(NC(=O)Nc2ccc(C)c(Cl)c2)c1	21.2%	7.0
x	6.3%	COc1cc(OC)c(C2CC(=O)N3CN(c4ccccc4C)CSC3=C2C#N)cc1OC (stereo not given)	x	-8.0
6.5%	3.7%	Cc1ccccc1-c1nc(S(=O)(=O)c2ccc(Cl)cc2)c(NCCN2CCOCC2)o1	-5.9%	-8.4
0.1%	0.4%	CCCCN1C(=O)c2ccc(C(=O)Nc3ccc(S(=O)(=O)N(C)C)cc3)cc2C1=O	15.2%	-8.6
-2.8%	-8.7%	Cc1cccc(N=C2N=C(N)c3ccccc32)c1	-1.1%	-11.4
u	-14.2%	CCOc1ccc2nc(Nc3nc4ccc(NC(C)=O)cc4s3)sc2c1	u	13.5
-2.4%	-0.5%	CCOC(=O)C1(CC2CCCCO2)CCN(C(=O)Nc2ccccc2CC)CC1 (stereo not given)	0.4%	5.7
3.4%	-13.4%	C=CCNc1nc(-c2sc(NC(=O)CC)nc2C)cs1	-14.0%	-16.4
-1.5%	x	CC(=O)Nc1ccc(C(=O)COC(=O)C2CC3CCCC(C2)C3=O)cc1 (stereo not given)	5.1%	x
1.6%	u	Cc1nc(S(=O)(=O)N(C)c2ccccc2)c(C#N)c(C)c1Cl	11.4%	5.8
-4.2%	x	Cc1cc(C)cc(OCC(=O)OCC(=O)Nc2cc(C)nn2-c2ccccc2)c1	-15.4%	x
6.2%	u	CCCCCCOc1ccc(/C(C)=N/NC2=NCCN2)cc1	-14.3%	x
-3.6%	-5.1%	COc1ccc(CCNC(=O)CC2(CC3=NS(=O)(=O)c4ccccc4N3)CCCC2)cc1OC	18.9%	x
-0.6%	0.6%	CCC(=O)c1cn(CC(=O)Nc2ccccc2Cl)c2ccccc12	0.6%	x
-4.2%	-9.3%	COc1cc2c(cc1OC)C(c1cccnc1)CC(=O)N2 (stereo not given)	-1.3%	4.5
3.0%	-3.7%	CCOc1ccc(N2C(=O)Nc3ccc(Br)cc3C2(O)C(=O)NCCCN(C)C)cc1 (stereo not given)	8.2%	x
1.1%	0.2%	CC(C)(C)c1ccc(OCCC(=O)NC2=NCCS2)cc1	0.8%	-3.0
0.1%	-2.7%	Cc1ccccc1NC(=O)CNc1ccc(Cl)c(C(F)(F)F)c1	1.4%	-18.2
4.5%	-13.7%	CC(C)c1ccc(NS(=O)(=O)c2ccc(Cl)nc2)cc1	0.6%	-2.0
-3.0%	-2.0%	Clc1ccc(-n2nnnc2SCc2c(-c3ccccc3)nc3sccn23)cc1	4.0%	-10.1
u	0.5%	N=C1/C(=C\c2coc3ccccc3c2=O)C(=O)N=C2SC=CN12	u	0.6
1.0%	-8.4%	COc1cc2c(cc1OC)CN(C(=O)COc1ccc(C#N)cc1)CC2	9.3%	3.4
1.7%	x	COc1ccc(S(=O)(=O)N2CCOCC2)cc1NC(=O)CCc1cc(OC)c(OC)c(OC)c1	10.9%	x
-4.1%	-9.6%	COC(=O)c1c(NC(=O)CN2C(=O)NC3(CCc4ccccc4C3)C2=O)sc2c1CCCCC2 (stereo not given)	0.2%	3.3
0.0%	-1.7%	CCOC(=O)CSc1nc(C)cc(C)n1	5.3%	-3.6
-4.8%	x	C/C=C(\C)C(=O)O[C@H](c1cc2ccc(=O)oc2cc1OC)[C@@H](O)C(C)(C)O	3.1%	x
0.6%	x	CCOC(=O)c1ccc(NC(=O)c2nc[nH]c2C(=O)NCCCNC(=O)c2[nH]cnc2C(=O)Nc2ccc(C(=O)OCC)cc2)cc1	11.4%	x
u	1.0%	Cn1c(CC2C(=O)Nc3ccc(Br)cc32)nc2ccccc2c1=O (stereo not given)	-23.5%	-5.0

# 2 entries from above, with tabs:
SMILES	Rango-impB inh	miR-21 reporter	Rango dissoc inh	GLA inh pH 4.5
COc1ccc(S(=O)(=O)N2CCOCC2)cc1NC(=O)CCc1cc(OC)c(OC)c(OC)c1	1.7%	x	10.9%	x
COC(=O)c1c(NC(=O)CN2C(=O)NC3(CCc4ccccc4C3)C2=O)sc2c1CCCCC2 (stereo not given)	-4.1%	-9.6%	0.2%	3.3

# Next section
Rango-impB inh	miR-21 reporter	compound	Rango dissoc inh	GLA inh pH 4.5
7.8%	-7.4%	COc1ccc(C(C(=O)Nc2ccc(C(C)C)cc2)N(C)C(=O)CNC(C)=O)cc1 (stereo not given)	-5.6%	-2.1
-4.8%	-7.0%	COc1ccc(-c2cn(Cc3ccc4c(c3)C(=O)c3ccccc3C4=O)nn2)cc1	9.0%	x
4.0%	-1.6%	O=C1COc2ccc(NC(=O)c3ccccc3C(=O)O)cc2N1	-11.7%	x
0.8%	0.6%	CC(CCc1ccco1)NC(=O)Cn1ncc2c1-c1ccccc1OC2 (stereo not given)	-4.3%	-0.3
-0.8%	0.3%	CC(C)NC(=O)CC(=O)N/N=C/c1ccc(F)cc1	-5.9%	-5.1
-2.3%	-2.2%	C/C(N)=N\S(=O)(=O)c1ccc(Cl)cc1	10.5%	-3.5
0.0%	-2.0%	O=C(N/N=C/c1ccncc1)c1cc(C2CC2)nc2ccccc12	27.9%	x
-2.1%	21.7%	CCOc1ccc(CCNC(=O)c2ccc(CNS(=O)(=O)c3ccccc3)cc2)cc1OCC	0.0%	2.9
2.9%	6.2%	O=C1CSC(c2ccc(Cl)cc2)N1Nc1nc(N2CCOCC2)nc(N2CCOCC2)n1 (stereo not given)	u	5.1
0.0%	x	C#CCOCCOCCOCCNc1nc(N2CCN(C(=O)[C@H](CCCN=C(N)N)n3cc(C(N)[C@@H](C)CC)nn3)CC2)nc(N2CCN(C(=O)[C@H](CCC(=O)O)n3cc([C@@H](N)CO)nn3)CC2)n1 (stereo not given in full)	0.8%	x
1.7%	-1.0%	C=C(C)COc1ccc2c(C)c(CCC(=O)N3C[C@H]4C[C@@H](C3)c3cccc(=O)n3C4)c(=O)oc2c1	1.9%	x
-1.7%	-5.5%	O=C(NCCCN1CCCC1=O)c1cc(S(=O)(=O)N2CCOCC2)ccc1Cl	1.8%	x
-1.4%	x	O=C(OC1CCOC1=O)C1CCN(S(=O)(=O)c2ccccc2)CC1 (stereo not given)	-1.6%	x
0.1%	x	CCCN=C1N(C)C[C@@H]2[C@@H]3C(=O)N(Cc4ccccc4)C(=O)[C@@H]3[C@](Cc3ccccc3)(C(=O)OC)N12	1.0%	x
-0.1%	-35.9%	COc1ccc(/C=N/Nc2nnc(-c3ncc[nH]3)c3ccccc23)cc1	0.5%	-4.7
5.4%	-30.7%	Cc1cccc(C(=O)NC2=NCCS2)c1	-7.6%	-1.7
1.7%	-1.1%	COc1ccccc1N(CC(=O)Nc1cccnc1)S(=O)(=O)c1ccccc1	-12.7%	0.3
3.4%	-3.9%	O/N=C1/CCc2nonc2/C1=N/O	12.2%	0.3
-1.1%	-0.3%	CCOC(=O)c1cc(=O)n2nc(-c3ccc(C)cc3)nc2s1	-7.7%	9.3
-2.7%	0.5%	CNC(=S)Nc1ccc2[nH]c(=O)[nH]c2c1	0.0%	9.0
-4.1%	-1.3%	CCOC(=O)c1cnc2ccc(OCC)cc2c1N(C)Cc1ccccc1	4.0%	-3.8
0.6%	-0.5%	CCOC(=O)CSc1nnc([C@H](C)NC(=O)OC(C)(C)C)o1	0.1%	6.1
1.0%	x	Cc1ccc(OCCCC(=O)Nc2ccc3c(c2)OCCO3)cc1	4.5%	x
-2.8%	6.3%	COc1cc(-c2noc(CCC(=O)NC3CCCC3)n2)cc(OC)c1OC	-1.1%	x
-4.0%	-0.1%	CC(C)N1C(=O)C2C(c3ccccc3O)NC(C)(C(=O)O)C2C1=O (stereo not given)	-9.9%	-0.5
0.9%	-3.3%	COc1cccc(OC)c1C(=O)Nc1ccccc1C(=O)N1CCCCCC1	5.1%	x
0.6%	-26.7%	Cc1ccc(C(=O)Nc2ccc(N3CCN(C)CC3)cc2)cc1C	-0.2%	x
-0.1%	-0.8%	O=C(c1ccco1)N1CCN(Cc2ccc(F)cc2)CC1	51.2%	x
u	-16.2%	CCCC(C)NC(=O)Cc1ccc(Br)cc1 (stereo not given)	9.8%	-5.1
0.2%	-7.5%	O=C(Cc1ccccc1)N1CCCC1c1ccccc1 (stereo not given)	0.6%	5.6
3.3%	-1.0%	COc1ccc(C(=O)C2CCCN(Cc3c[nH]c4ccccc34)C2)c(OC)c1 (stereo not given)	-17.8%	-2.8
0.2%	-6.7%	COc1ccc(C(C)(C)C)cc1S(=O)(=O)n1ccnc1C	-4.7%	-1.1
-0.5%	13.9%	COc1ccc(-c2[nH]c(-c3ccccc3)nc2SCC(=O)Nc2nccs2)cc1	5.7%	11.3
6.9%	x	CCN(CC(=O)Nc1ccc(C)c(S(=O)(=O)N2CCOCC2)c1)Cc1ccccc1	0.0%	x
0.4%	-0.8%	COc1cccc(CNC(C)(C)CO)c1OCc1ccc(Cl)cc1	26.6%	2.4
u	-15.9%	Cc1cccc(NC(=O)c2sc3nc(-c4ccc(F)cc4)cn3c2C)n1	u	-5.8
-0.5%	-0.4%	CC(C)CN(Cc1c(O)ccc2ccccc12)CC(C)C	-1.6%	13.5
-0.8%	x	Cc1ccc(CNC(=O)c2ccc(Cl)c(S(=O)(=O)N3CCCCC3)c2)cc1	9.6%	x
0.5%	1.4%	CCOC(=O)N1CCN(S(=O)(=O)c2ccc3c(c2)CCN3C(=O)C2CC2)CC1	12.0%	2.9
x	0.0%	COc1cc([N+](=O)[O-])ccc1NC(=O)CSc1nc2ccccc2n1-c1ccccc1	x	-4.4
-1.4%	1.2%	COC(=O)c1sc(NC(=O)CSc2nnc(C(C)C)n2C)nc1C	0.3%	-4.9
3.5%	-14.7%	COc1ccc(CCNC(=O)COc2ccc(C)nc2[N+](=O)[O-])cc1	-3.6%	6.5
1.7%	-2.6%	CCOC(=O)/C(=C/c1ccc(F)cc1)NC(C)=O	0.3%	3.8
-2.9%	3.5%	Cc1nn(-c2ccccc2)c(N)c1C1(O)C(=O)Nc2ccccc21 (stereo not given)	-7.6%	5.0
u	3.1%	CCn1c(Cc2c(C)[nH]c3ccccc23)nnc1SCC(=O)NCc1ccco1	u	-1.6
-0.9%	-6.2%	CCCCCn1c(=S)[nH]c2ncccc2c1=O	1.9%	0.0
0.0%	-13.7%	Cc1c(CC(=O)N2C[C@H]3C[C@@H](C2)c2cccc(=O)n2C3)c(=O)oc2cc3occ(C(C)(C)C)c3cc12	-12.0%	x
-4.9%	-12.1%	Cc1cc(C)cc(NC(=O)Nc2ccc3c(c2)CCC3)c1	-10.7%	x
0.6%	-9.0%	CCC(=O)N(Cc1ccco1)c1nc(-c2ccc(OC)cc2)cs1	-0.8%	-0.1
-0.8%	-21.0%	COc1cc(O)c2c(=O)cc(-c3ccccc3)oc2c1	8.1%	-12.5&-2.4
3.3%	-13.9%	O=C(CCc1ccccc1F)N1CCN(c2ccccc2)CC1	-1.4%	x
-3.8%	x	COc1ccccc1-c1csc2ncnc(Sc3nnnn3C)c12	0.2%	x
x	-41.5%	CCOCC(=O)Nc1cc(C(=O)Nc2ccc(F)cc2)ccc1Cl	x	3.9
-3.7%	-16.2%	COc1ccc(-c2cc(C(F)(F)F)n3nc(C(=O)O)cc3n2)cc1OC	-17.3%	-0.5
-0.3%	x	Cc1cccc(C)c1NC(=O)CN1CCc2ccccc2C1	-19.6%	x
-2.5%	5.6%	CN(C)C(=O)CSc1nc(-c2cccs2)c(-c2cccs2)[nH]1	-3.3%	x
